# Myc binder – binds human c-Myc on microarray | calls only | hit rate 1.5% among 17,000 | P01106 | small molecule microarray, His-c-Myc binding, anti-His fluorescence | AID 624141;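 active means spot fluorescence over background with P-value below 7% in all four replicate spots, showing protein binding; compounds were printed on slides so no solution concentration is given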;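 further: score is binary with 100 for all four spots passing and 0 otherwise; about 2 pmol printed per array spot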
# ID4 SMM – binders of human ID4 protein; P47928; small molecule microarray, Flag-ID4 binding, fluorescence F/B; calls only; hit rate 1.2% among 31,000; AID 624137;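 active means spot signal over background at p below 0.07 in all four prints; compounds were printed on slides so no solution concentration is given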;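 further: a binder raises fluorescence above local background on the spot; about 2 pmol printed per array spot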
# Target sequence (P47928 whole entry, looked up): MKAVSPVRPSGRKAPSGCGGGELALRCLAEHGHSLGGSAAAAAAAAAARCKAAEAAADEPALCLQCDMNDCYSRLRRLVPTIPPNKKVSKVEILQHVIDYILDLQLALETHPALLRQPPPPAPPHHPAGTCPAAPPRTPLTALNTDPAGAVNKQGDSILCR
# mut p53 SMM – mutant p53 (human) binding; small molecule microarray binding, anti-GST fluorescence; calls only; hit rate 0.4% among 17,000; AID 624136;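 active means compounds whose four printed spots each glow above background more than chance allows, each with a p-value under 7%; compounds were printed on slides so no solution concentration is given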;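 further: about 2 pmol printed per array spot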
# STAT3 SMM – binds human STAT3 on microarray | P40763 | AID 624138 | calls only | hit rate 0.2% among 17,000 | Small molecule microarray, His-STAT3 binding, anti-His fluorescence;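 active means compounds whose four printed spots each show fluorescence over background unusually high for their array block, chance value under 7%; compounds were printed on slides so no solution concentration is given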;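 further: about 2 pmol printed per array spot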
# Target sequence (P40763 whole entry, looked up): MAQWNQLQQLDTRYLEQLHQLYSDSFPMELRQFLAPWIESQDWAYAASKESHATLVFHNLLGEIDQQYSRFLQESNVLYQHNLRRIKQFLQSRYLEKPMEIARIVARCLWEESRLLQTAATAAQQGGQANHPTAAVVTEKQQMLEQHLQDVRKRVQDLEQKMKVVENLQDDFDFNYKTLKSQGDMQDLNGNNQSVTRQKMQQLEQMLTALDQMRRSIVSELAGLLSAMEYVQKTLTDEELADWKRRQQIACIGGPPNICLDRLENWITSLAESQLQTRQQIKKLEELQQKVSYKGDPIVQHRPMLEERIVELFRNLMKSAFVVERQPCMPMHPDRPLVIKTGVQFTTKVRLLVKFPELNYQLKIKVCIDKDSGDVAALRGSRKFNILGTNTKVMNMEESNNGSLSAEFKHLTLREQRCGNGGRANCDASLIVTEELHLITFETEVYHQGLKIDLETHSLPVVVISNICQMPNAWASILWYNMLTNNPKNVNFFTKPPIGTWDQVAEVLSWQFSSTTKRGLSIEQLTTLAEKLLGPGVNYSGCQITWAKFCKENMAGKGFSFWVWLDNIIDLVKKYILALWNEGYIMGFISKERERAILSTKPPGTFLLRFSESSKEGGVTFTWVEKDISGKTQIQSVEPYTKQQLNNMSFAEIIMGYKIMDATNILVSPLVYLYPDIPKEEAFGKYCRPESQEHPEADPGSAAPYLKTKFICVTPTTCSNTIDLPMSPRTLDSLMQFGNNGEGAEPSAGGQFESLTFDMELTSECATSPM
# Calls only; i = inactive; / = no result given; + = active, no number. These rows are one share of the data; rates above refer to the full screens.
# Values run as follows: Myc binder, ID4 SMM, mut p53 SMM, STAT3 SMM
CC(C)N(C(=O)CSc1nc2ccc(Cl)cc2[nH]1)c1ccccc1
    i, i, i, i
COc1cccc(C(=O)NCCN=C2NS(=O)(=O)c3ccccc32)c1
    i, i, i, i
C[C@H](CO)N1C[C@H](C)[C@@H](CN(C)C(=O)Nc2ccc(F)cc2)Oc2c(NC(=O)c3ccc(-c4nccs4)cc3)cccc2C1=O
    i, i, i, i
Cc1noc(C)c1NC(=O)N(C)C[C@@H]1Oc2ccc(NC(=O)C3CC3)cc2C(=O)N([C@H](C)CO)C[C@@H]1C
    i, i, i, i
C[C@H](CO)N1C[C@H](C)[C@H](CN(C)Cc2ccccc2)Oc2c(NS(C)(=O)=O)cccc2C1=O
    i, i, i, i
C[C@H](CO)N1C[C@H](C)[C@@H](CN(C)S(=O)(=O)c2ccc(Oc3ccccc3)cc2)OCc2cn(nn2)CCCC1=O
    i, i, i, i
C[C@H]1CCCCO[C@H](CN(C)C(=O)C2CCCCC2)[C@@H](C)CN([C@@H](C)CO)C(=O)c2cc(NS(=O)(=O)c3cccs3)ccc2O1
    i, i, i, i
COc1ccc(S(=O)(=O)N(C)CC(=O)Nc2ccc(C(N)=O)cc2)cc1C
    i, i, i, i
COc1ccc(NC(=O)N(C)C[C@H]2OCc3cnnn3CCCC(=O)N([C@H](C)CO)C[C@@H]2C)c(OC)c1
    i, /, i, i
COc1cccc(NC(=O)CSc2nc(N)cc(N)n2)c1
    i, i, i, i
O=C(O)C1=C[C@H](c2coc3ccccc3c2=O)C[C@H](OCc2ccc(CO)cc2)O1
    i, i, i, i
C[C@H](CO)N1C[C@H](C)[C@@H](CN(C)C(=O)CCC(F)(F)F)OCCCC[C@H](C)Oc2ccc(NS(=O)(=O)c3cccs3)cc2C1=O
    i, i, i, i
C[C@@H]1CCCCO[C@H](CN(C)C(=O)c2ccncc2)[C@@H](C)CN([C@H](C)CO)C(=O)c2cc(NC(=O)CCC(F)(F)F)ccc2O1
    i, i, i, i
C[C@H](CO)N1C[C@H](C)[C@H](CN(C)Cc2ccc(C(F)(F)F)cc2)Oc2c(NS(=O)(=O)c3ccc(F)cc3)cccc2C1=O
    i, i, i, i
CN(C)C(=O)CSc1nc2sc3c(c2c(=O)[nH]1)CCCC3
    i, i, i, i
COC(=O)C1=C(C)NC2=C(C(=O)c3ccccc32)C1c1ccc(OCc2cccc([N+](=O)[O-])c2)cc1 (stereo unspecified)
    i, i, i, i
C[C@H]1CN([C@@H](C)CO)C(=O)Cc2cc(NC(=O)NC3CCCCC3)ccc2O[C@@H]1CN(C)C(=O)Nc1cccc2ccccc12
    i, i, i, i
Cc1ccc(S(=O)(=O)Nc2ccc3c(c2)CC(=O)N([C@H](C)CO)C[C@H](C)[C@@H](CN(C)S(=O)(=O)c2ccc(F)cc2)O3)cc1
    i, /, i, i
Cc1noc(C)c1NC(=O)N(C)C[C@@H]1Oc2ccc(NS(=O)(=O)c3cn(C)cn3)cc2CC(=O)N([C@H](C)CO)C[C@H]1C
    i, i, i, i
CN(C)c1nc(N)nc(CSc2nc3cc(Cl)ccc3o2)n1
    i, i, i, i
C[C@H](CO)N1C[C@H](C)[C@@H](CN(C)C(=O)Nc2ccc3c(c2)OCO3)Oc2ccc(NC(=O)Nc3ccc4c(c3)OCO4)cc2CC1=O
    i, i, i, i
Cc1noc(C)c1S(=O)(=O)N(C)C[C@@H]1OCCCC[C@@H](C)Oc2ccc(N(C)C)cc2C(=O)N([C@@H](C)CO)C[C@@H]1C
    i, i, i, i
Cc1noc(C)c1S(=O)(=O)Nc1ccc2c(c1)C(=O)N([C@@H](C)CO)C[C@H](C)[C@H](CN(C)C(=O)Cc1ccccc1)OCCCC[C@@H](C)O2
    i, i, i, i
C[C@H](CO)N1C[C@H](C)[C@@H](CN(C)C(=O)NC2CCCCC2)Oc2ccc(NC(=O)Cc3cn(C)c4ccccc34)cc2CC1=O
    i, i, i, i
Cc1ccccc1Cn1ccc(NC(=O)c2nn3c(c2Cl)NC(c2ccccc2)CC3C(F)(F)F)n1 (stereo unspecified)
    i, i, i, i
CC(C)NC(=O)N(C)C[C@@H]1OCCCC[C@@H](C)Oc2ccc(NC(=O)CCCN(C)C)cc2C(=O)N([C@@H](C)CO)C[C@H]1C
    i, i, i, i
C[C@@H]1CN([C@H](C)CO)C(=O)c2cc(NS(=O)(=O)c3ccc(Cl)cc3)ccc2O[C@H]1CN(C)C(=O)Nc1ccc(F)cc1
    i, i, i, i
N#Cc1ccccc1OCC(O)CNCCNC(=O)Nc1ccccc1 (stereo unspecified)
    i, i, i, i
C[C@@H]1C=C(C(=O)NCc2nc3ccccc3[nH]2)O[C@H](OCc2ccc(CO)cc2)C1
    i, /, i, i
COC(=O)C1=C(C)n2nnnc2NC1c1cc2ccccc2o1 (stereo unspecified)
    i, i, i, i

# (further entries)
# Values run as follows: Myc binder, ID4 SMM, mut p53 SMM, STAT3 SMM
CC(=O)c1c(C)n(CC(=O)O)c2ccccc12
    i, i, i, i
Cc1cc2c(=O)n(Cc3ccco3)c(SCc3cc(=O)[nH][nH]3)nc2s1
    i, i, i, i
CNc1ccccc1C(=O)OC1OC(C)C(O)C(O)C1O (stereo unspecified)
    i, +, i, i
CC(C)NC(=O)N(C)C[C@@H]1OCCCC[C@@H](C)Oc2ccc(NC(=O)Nc3ccccc3)cc2C(=O)N([C@@H](C)CO)C[C@H]1C
    i, i, i, i
Cc1cc(C)c(S(=O)(=O)N(C)CC(=O)N2CCC(C(N)=O)CC2)c(C)c1
    i, i, i, i
C/C1=C/CC(=O)[C@@H](C)C[C@H]2OC(=O)C(CO)=C2CC1
    i, /, i, i
CNC[C@H]1Oc2ccc(NC(=O)c3ccncc3)cc2CC(=O)N([C@H](C)CO)C[C@@H]1C
    i, i, i, i
Cc1noc(C)c1S(=O)(=O)Nc1cccc2c1O[C@H](CN(C)Cc1ccc(C(=O)O)cc1)[C@H](C)CN([C@H](C)CO)C2=O
    i, i, i, i
C[C@H]1CN([C@@H](C)CO)C(=O)Cc2cc(NC(=O)Nc3ccc4c(c3)OCO4)ccc2O[C@@H]1CN(C)CC1CC1
    i, i, i, i
C[C@H](CO)N1C[C@H](C)[C@H](CN(C)S(=O)(=O)c2cccs2)Oc2ccc(N(C)C)cc2C1=O
    i, i, i, i
CCOc1ccc(OCC(=O)Nc2sc3c(c2C(N)=O)CCC(C)C3)cc1 (stereo unspecified)
    i, i, i, i
C[C@H](CO)N1C[C@H](C)[C@@H](CN(C)S(=O)(=O)c2ccccc2)Oc2c(NC(=O)Nc3ccc(C(F)(F)F)cc3)cccc2C1=O
    i, i, i, i
Cc1noc(C)c1NC(=O)Nc1ccc2c(c1)CC(=O)N([C@@H](C)CO)C[C@@H](C)[C@H](CN(C)S(=O)(=O)c1ccccc1)O2
    i, i, i, i
C[C@@H]1CN([C@H](C)CO)C(=O)CCCn2nncc2CO[C@@H]1CN(C)C(=O)Nc1ccc(C(C)(C)C)cc1
    i, i, i, i
Cc1noc(C)c1NC(=O)N(C)C[C@@H]1OCCCC[C@@H](C)Oc2ccc(NS(=O)(=O)c3cn(C)cn3)cc2C(=O)N([C@@H](C)CO)C[C@H]1C
    i, i, i, i
C[C@@H]1CCCCO[C@H](CN(C)C(=O)Nc2ccc3c(c2)OCO3)[C@H](C)CN([C@@H](C)CO)C(=O)c2cc(NC(=O)Nc3ccc4c(c3)OCO4)ccc2O1
    i, /, i, i
CC(C)NC(=O)Nc1ccc2c(c1)C(=O)N([C@H](C)CO)C[C@H](C)[C@@H](CN(C)C)OCCCC[C@@H](C)O2
    i, i, i, i
C[C@@H]1CN([C@@H](C)CO)C(=O)c2cc(NC(=O)Nc3ccc(F)cc3)ccc2O[C@H]1CN(C)Cc1ccncc1
    i, i, i, i
CC(C)c1ccc(NC(=O)CSc2n[nH]c(-c3ccccc3Cl)n2)cc1
    i, i, i, i
Cc1ccc(NC(=O)CSc2nnc(-c3ccc(Cl)cc3Cl)n2-c2ccccc2)cc1
    i, i, i, i
C[C@H]1CN([C@@H](C)CO)C(=O)Cc2cc(NC(=O)Nc3ccccc3)ccc2O[C@H]1CN(C)S(=O)(=O)c1ccc(F)cc1
    i, /, i, i
C[C@@H]1CN([C@H](C)CO)C(=O)c2cc(NS(=O)(=O)c3cn(C)cn3)ccc2O[C@@H]1CN(C)S(=O)(=O)c1cn(C)cn1
    i, i, i, i
Cc1cccc(CN(C)C[C@H]2OCc3cnnn3CCCC(=O)N([C@H](C)CO)C[C@H]2C)c1
    i, i, i, i
CCOc1ccc(NC(=O)CSc2n[nH]c(=O)n2-c2ccccc2)cc1
    i, i, i, i
N#C/C(=C/c1ccc(O)c(O)c1)C(=O)NCCCCc1ccccc1
    i, i, i, i
C[C@@H]1CN([C@H](C)CO)C(=O)Cc2cc(NC(=O)NC3CCCCC3)ccc2O[C@@H]1CN(C)C(=O)NC1CCCCC1
    i, i, i, i
C[C@@H]1CN([C@@H](C)CO)C(=O)c2cccc(NS(=O)(=O)c3cccs3)c2O[C@H]1CN(C)C
    i, i, i, i
C[C@@H]1CCCCO[C@@H](CN(C)Cc2ccccc2)[C@H](C)CN([C@@H](C)CO)C(=O)c2cc(NC(=O)Nc3ccc4c(c3)OCO4)ccc2O1
    i, i, i, i
C[C@H](CO)N1C[C@H](C)[C@@H](CN(C)C)Oc2c(NC(=O)C3CC3)cccc2C1=O
    i, i, i, i
C[C@@H]1CN([C@@H](C)CO)C(=O)Cc2cc(NC(=O)Cn3cnnn3)ccc2O[C@H]1CN(C)C
    i, i, i, i

# (list continues)
canonical_smiles	Myc binder	ID4 SMM	mut p53 SMM	STAT3 SMM
COc1ccc(CN(C)C[C@H]2Oc3c(NS(=O)(=O)c4ccc(Cl)cc4)cccc3C(=O)N([C@H](C)CO)C[C@@H]2C)cc1	i	i	i	i
CNC[C@@H]1Oc2c(NC(=O)c3nc4ccccc4s3)cccc2C(=O)N([C@@H](C)CO)C[C@H]1C	i	i	i	i
Cc1nc(SCC(N)=O)c2c(C)c(C)sc2n1	i	i	i	i
COCCOC(=O)N1C(=O)[C@@]2(c3cc(C#CCC(C(=O)OC)C(=O)OC)ccc31)[C@H](c1ccc(O)cc1)N1[C@H](c3ccccc3)[C@H](c3ccccc3)OC(=O)[C@H]1[C@@H]2C(=O)N1CCc2cc(OC)c(OC)cc2C1	i	/	i	i
C[C@@H]1CN([C@@H](C)CO)C(=O)c2cc(NC(=O)Cc3ccccc3)ccc2O[C@@H](C)CCCCO[C@H]1CN(C)S(=O)(=O)c1cccs1	i	i	i	i
C[C@H]1CN([C@@H](C)CO)C(=O)Cc2cc(NS(=O)(=O)c3cccs3)ccc2O[C@H]1CN(C)Cc1ccccc1	i	i	i	i
COc1ccc(CN(C)C[C@@H]2Oc3ccc(NC(=O)Nc4ccc(OC)cc4)cc3C(=O)N([C@H](C)CO)C[C@H]2C)cc1	i	i	i	i
Cc1noc(C)c1S(=O)(=O)N(C)C[C@H]1OCCCC[C@H](C)Oc2ccc(N(C)C)cc2C(=O)N([C@H](C)CO)C[C@@H]1C	i	i	i	i
CC(C)NC(=O)Nc1ccc2c(c1)C(=O)N([C@H](C)CO)C[C@@H](C)[C@H](CN(C)Cc1ccccc1)OCCCC[C@H](C)O2	i	i	i	i
CC(C)NC(=O)Nc1ccc2c(c1)CC(=O)N([C@H](C)CO)C[C@H](C)[C@@H](CN(C)Cc1ccc(-c3ccccc3)cc1)O2	i	i	i	i
C[C@H](CO)N1C[C@H](C)[C@@H](CN(C)C(=O)NC2CCCCC2)Oc2ccc(NC(=O)Cc3cn(C)c4ccccc34)cc2C1=O	i	i	i	i
C[C@H](CO)N1C[C@H](C)[C@H](CN(C)S(=O)(=O)c2ccc(Cl)cc2)OCc2cnnn2CCCC1=O	i	i	i	i
COc1ccc(CN(C)C[C@@H]2Oc3ccc(NC(=O)Nc4cccc5ccccc45)cc3C(=O)N([C@@H](C)CO)C[C@H]2C)cc1	i	i	i	i
COC(=O)C1=CO[C@@H](O[C@@H]2O[C@H](CO)[C@@H](O)[C@H](O)[C@H]2O)[C@H]2[C@@H]1[C@H](OC(C)=O)C[C@]2(C)O	i	i	i	i
C[C@H](CO)N1C[C@H](C)[C@@H](CN(C)Cc2ccc3c(c2)OCO3)Oc2ccc(NC(=O)C3CC3)cc2CC1=O	i	i	i	i
C[C@@H]1CN([C@H](C)CO)C(=O)CCCn2cc(nn2)CO[C@H]1CN(C)C(=O)c1ccc(N2CCN(C)CC2)cc1	i	i	i	i

# Looked up by structure from the entries so far:
canonical_smiles	Myc binder	ID4 SMM	mut p53 SMM	STAT3 SMM
CNC[C@@H]1Oc2c(NC(=O)c3nc4ccccc4s3)cccc2C(=O)N([C@@H](C)CO)C[C@H]1C	i	i	i	i
COc1ccc(CN(C)C[C@H]2Oc3c(NS(=O)(=O)c4ccc(Cl)cc4)cccc3C(=O)N([C@H](C)CO)C[C@@H]2C)cc1	i	i	i	i
COC(=O)C1=CO[C@@H](O[C@@H]2O[C@H](CO)[C@@H](O)[C@H](O)[C@H]2O)[C@H]2[C@@H]1[C@H](OC(C)=O)C[C@]2(C)O	i	i	i	i
